Screening results: PubChem, several laboratories
HNF4A DNA FP: change in binding of human HNF4 alpha to DNA. P41235. hit rate 0.3% among 360,000. HNF4a-FITC DNA binding, fluorescence polarization, 1 h. activity change, % at 10 µM. AID 1224865; in the data active = activity change above about 30%, passing the limit was not always enough;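 note: controls were the assay level and a saturating level of protein; the project sought stronger binding though the title names inhibitors; some compounds called inactive have numbers as strong as hits; positive values seem to mean higher polarization but the record does not say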
RanGTP-Impb inh: disruptors of Ran-importin-beta complex formation – biochemical, FRET, CFP-Ran, YFP-importin-beta, homogeneous, primary screen; hit rate 1.1% among 300,000; inhibition, % (concentration not given with the values); AID 2216; cell-free CFP-Ran/YFP-importin-beta FRET ratio;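 active = most replicates above 15%; inconclusive = exactly half above 15%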;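 note: 0% = DMSO wells and 100% = Ran loaded with GDP instead of GTP; wells of about 40 µL received 100 nL stock; the first replicate is given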
Vif A3G: inhibitors of Vif binding to APOBEC3G peptide, primary screen, biochemical, TR-FRET, GST-Vif 1-94, biotin-A3G peptide, dose response retest (AID 1117319) | TR-FRET GST-Vif / biotin-A3G peptide binding; higher % means a stronger effect; test concentration not given here; strong numbers were not always called active | inhibition, %; hits with a dose series show IC50 in µM | hit rate 0.57% among 260,000;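 active = above the screen mean plus three standard deviations and confirmed in dose response; inconclusive = results disagree or hit not tested in dose response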;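 note: Vif residues 1-94 fused to GST binding biotinylated APOBEC3G peptide 110-148; 0% = full assay without inhibitor and 100% = GST in place of GST-Vif; retest series ran down from 100 µM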
B2AR ag: activates human beta-2 adrenergic receptor causing internalization. response, % (test concentration not listed). hit rate 0.43% among 340,000. Am2.2-beta2AR cells, FAP receptor internalization, flow cytometry; reference of the scale not given here. P07550;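 active = response above a set limit, near 3 SD of response in nonfluorescent compounds, cut at about 42% in these data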;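 note: stock transfer was 100 nL into about 11 µL; a reference agonist was the positive control; negative values mostly stem from fluorescent compounds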
Calb FLC: affects C. albicans growth with fluconazole. C. albicans CaCi-2 (fluconazole-resistant clinical isolate) + fluconazole, Alamar Blue growth, 48 h. growth inhibition, % (no concentration beside the values). hit rate 0.57% among 300,000. AID 1979;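 active = most replicates above 75%; inconclusive = exactly half above 75%; inactive = most below 75%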;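 note: all wells also contain fluconazole at 8 µg/ml as a sub-toxic cotreatment; 0% = median of DMSO wells and 100% = median of geldanamycin control wells; wells of about 8 µL received 7.5 nL stock; the first replicate is given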
ALR inh: inhibitors of human sulfhydryl oxidase ALR. inhibition, % (no concentration beside the values). purified ALR, DTT oxidation, H2O2 HRP-luminol luminescence. P55789. hit rate 3.8% among 290,000;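 active = mean and each replicate at 75% or more; inconclusive = only one of the two met; inactive = neither met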;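 note: stock transfer was 7.5 nL into about 7.5 µL; 0% = neutral wells and 100% = wells with inactivated enzyme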
LANA-H2A inh: blocks KSHV LANA binding to histone H2A/H2B; inhibition, % (test concentration not listed); cell-free LANA-H2A/H2B peptide, fluorescence polarization; AID 2629; hit rate 0.6% among 320,000; Q9QR71; in the data active = inhibition mostly above about 10%, no sharp cut-off; inactive = mostly below about 6.7%;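 note: stock transfer was 7.5 nL into about 10 µL; 0% = median of vehicle wells and 100% = median of positive control wells; one replicate is shown; the record names a cut of 25% in any replicate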
Target sequence (Q9QR71 whole entry, looked up): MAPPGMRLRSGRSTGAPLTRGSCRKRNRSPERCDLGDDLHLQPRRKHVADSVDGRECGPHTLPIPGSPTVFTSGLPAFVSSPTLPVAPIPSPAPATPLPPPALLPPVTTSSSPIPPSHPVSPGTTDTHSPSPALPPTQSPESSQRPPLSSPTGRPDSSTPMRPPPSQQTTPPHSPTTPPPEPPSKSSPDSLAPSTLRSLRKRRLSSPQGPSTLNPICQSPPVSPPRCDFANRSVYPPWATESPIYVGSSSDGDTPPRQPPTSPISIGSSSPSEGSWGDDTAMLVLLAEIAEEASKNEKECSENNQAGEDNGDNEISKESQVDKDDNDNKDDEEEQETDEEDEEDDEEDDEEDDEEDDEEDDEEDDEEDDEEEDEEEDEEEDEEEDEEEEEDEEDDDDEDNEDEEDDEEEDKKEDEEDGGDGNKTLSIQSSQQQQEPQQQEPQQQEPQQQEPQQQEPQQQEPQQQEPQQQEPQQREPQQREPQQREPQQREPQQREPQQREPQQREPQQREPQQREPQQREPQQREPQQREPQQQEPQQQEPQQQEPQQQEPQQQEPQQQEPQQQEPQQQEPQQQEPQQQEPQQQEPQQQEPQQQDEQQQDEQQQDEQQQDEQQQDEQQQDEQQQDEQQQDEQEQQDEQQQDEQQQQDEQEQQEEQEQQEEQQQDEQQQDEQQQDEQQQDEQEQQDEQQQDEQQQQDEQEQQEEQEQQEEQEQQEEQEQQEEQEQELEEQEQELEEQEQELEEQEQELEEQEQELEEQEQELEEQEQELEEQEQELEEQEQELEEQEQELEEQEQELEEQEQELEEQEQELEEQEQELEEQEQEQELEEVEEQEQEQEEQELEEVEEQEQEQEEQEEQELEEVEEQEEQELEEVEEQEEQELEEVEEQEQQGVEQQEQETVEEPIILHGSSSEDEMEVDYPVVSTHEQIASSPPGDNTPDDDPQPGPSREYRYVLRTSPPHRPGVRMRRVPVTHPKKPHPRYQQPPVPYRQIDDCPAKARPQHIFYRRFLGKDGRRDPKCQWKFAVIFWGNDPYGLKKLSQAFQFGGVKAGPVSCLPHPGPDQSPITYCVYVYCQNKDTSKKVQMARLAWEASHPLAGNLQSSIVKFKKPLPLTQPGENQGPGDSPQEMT
* hit, by the source's call; ? = inconclusive; . = not tested or not shown.

Molecule	HNF4A DNA FP	RanGTP-Impb inh	Vif A3G	B2AR ag	Calb FLC	ALR inh	LANA-H2A inh
Cc1cc(NS(=O)(=O)c2ccc(NC(=S)NC(=O)c3cccc(S(=O)(=O)N(C)C)c3)cc2)no1	-1.0	0.5	1%	-1	8	50	-1.3
Cc1ccc(C)n1Cc1ccccc1Cl	0.5	4.7	-4%	-1	2	-2	2.1
COc1ccc2sc3ccccc3c(=O)c2c1	-3.8	95*	-194%	-3	1	-4	-2.8
COCNc1nc(OCC#N)nc(N(C)C)n1	-3.8	0.8	-1%	2	-3	-33	1.9
CC(C)(C)C(=O)/C=C(\N)c1ccncc1	0.4	1.9	-1%	1	-17	-6	1.1
O=C(NC1CCCC1)C(c1ccco1)N(C(=O)c1ccco1)c1ccc(F)cc1 (configuration not stated)	3.0	2.0	-2%	11	-30	-3	5.6
Cc1cccc(C(=O)OCC(=O)N2CCCC2=O)c1[N+](=O)[O-]	1.4	0.6	2%	0	2	2	-1.5
CCc1ccccc1N(CC(=O)N1CCN(c2ccc(F)cc2)CC1)S(C)(=O)=O	3.6	-2.6	0%	3	25	32	1.2
Cc1ccc(CNC(=O)C2CCC(=O)N(Cc3ccc(Cl)cc3)C2)cc1F (configuration not stated)	4.4	-1.3	.	0	19	-11	-1.3
CCc1c(C(=O)NN2C(=O)C3CCCCC3C2=O)csc1C (configuration not stated)	0.1	1.6	4%	-8	1	-8	-4.7
COc1ccc(NCC(O)Cn2c(C)c(C)c3ccccc32)cc1 (configuration not stated)	2.9	-3.9	.	-4	11	.	2.9
Cc1ccnc(NC(=O)CCC(=O)c2cccs2)c1	-0.8	.	3%	-2	-7	-12	2.2
COc1ccc(CN2CC(C(=O)NCCC(C)C)CC2=O)cc1 (configuration not stated)	-5.1	-3.6	5%	4	-10	11	-3.3
CCOC(=O)c1sc(NC(=O)C(CC)Sc2nccn2C)nc1C (configuration not stated)	-0.4	-1.9	6%	2	-18	-3	3.7
O=C(Cc1cccc2ccccc12)N1CCCc2ccccc21	2.2	-2.4	6%	-8	-5	-24	3.2
COc1cccc(N2C(=O)CN(Cc3cc(OC)c(OC)c(OC)c3)C2=S)c1	-2.2	2.5	2%	-6	-5	12	-4.8
O=C(Cc1ccsc1)NNC(=O)c1ccccc1O	-0.1	-1.2	4%	2	-7	-11	-2.9
O=C(/C=C/c1ccc(Cl)cc1Cl)N1CCc2ccccc21	0.7	?	20%	14	-11	-11	1.0
COc1ccccc1NS(=O)(=O)c1cc(NC(=O)c2cccs2)ccc1N1CCCC1	-3.8	-1.9	0%	-11	6	-5	-4.0
O=C(c1ccc(Cl)cc1)N1CCc2c([nH]c3ccccc23)C1C(F)(F)F (configuration not stated)	-1.8	4.6	.	29	17	-8	-0.6
CC1CCCCC1NC(=O)COC(=O)COc1ccccc1F (configuration not stated)	-1.7	.	-4%	0	.	.	1.2
CC(=O)Nc1ccc(-c2cn3cccnc3n2)cc1	1.4	?	2%	-33	-3	-29	-1.3
Cc1nn(CC2CC2)c(=O)n1-c1ccccc1F	-0.2	2.0	-5%	-1	10	1	-1.1
C/C(=N\NC(=O)C1CC1c1ccccc1)c1cccc([N+](=O)[O-])c1 (configuration not stated)	-3.7	-2.7	26%	2	-1	-3	-6.3

Shown with two lines to a compound: part of the list above.
Results follow in this order: HNF4A DNA FP | RanGTP-Impb inh | Vif A3G | B2AR ag | Calb FLC | ALR inh | LANA-H2A inh
COc1ccccc1NS(=O)(=O)c1cc(NC(=O)c2cccs2)ccc1N1CCCC1
    -3.8 | -1.9 | 0% | -11 | 6 | -5 | -4.0
O=C(c1ccc(Cl)cc1)N1CCc2c([nH]c3ccccc23)C1C(F)(F)F (configuration not stated)
    -1.8 | 4.6 | . | 29 | 17 | -8 | -0.6
CC1CCCCC1NC(=O)COC(=O)COc1ccccc1F (configuration not stated)
    -1.7 | . | -4% | 0 | . | . | 1.2
CC(=O)Nc1ccc(-c2cn3cccnc3n2)cc1
    1.4 | ? | 2% | -33 | -3 | -29 | -1.3
Cc1nn(CC2CC2)c(=O)n1-c1ccccc1F
    -0.2 | 2.0 | -5% | -1 | 10 | 1 | -1.1

(more compounds)
Molecule	HNF4A DNA FP	RanGTP-Impb inh	Vif A3G	B2AR ag	Calb FLC	ALR inh	LANA-H2A inh
O=C(COc1ccc(Cl)cc1)N1CCCC1	0.8	-0.3	-4%	12	-5	-1	4.5
Cc1cc(N2C(=O)CC(N3CCN(C(c4ccccc4)c4ccccc4)CC3)C2=O)no1 (configuration not stated)	1.8	-2.1	28%	-8	2	0	10
O=S1(=O)[C@H]2C[C@H](CO)O[C@@]2(CO)CN1Cc1ccc(-c2cccc(Cl)c2)cc1	-0.4	.	-3%	11	.	.	.
CC(C)=CCN1CCN(CC#Cc2ccccc2)CC1CCO (configuration not stated)	3.0	1.4	3%	-5	-3	.	-1.4
CCOC(=O)N1CCC(NC(=O)CCCN2C(=O)CSc3ncccc32)CC1	-1.3	5.6	1%	4	5	-7	4.3
O=S(=O)(c1cccs1)N1CCN(Cc2ccccc2)CC1	0.2	2.1	5%	4	-25	-11	-9.3
Cc1nc(CNC(=O)c2ccccc2OC2CCN(S(C)(=O)=O)CC2)cs1	-2.2	-13	?	-5	-14	-1	6.3
Cc1cc(C(F)(F)F)nc(SCC(=O)NC2CC3CCC2C3)n1 (configuration not stated)	-0.6	1.7	-4%	-8	-9	-3	2.5
N#Cc1ccc(COC(=O)c2ccccn2)cc1	.	4.2	4%	.	-20	-2	1.7
COc1ccccc1NC(=S)NCCc1c[nH]c2ccccc12	1.7	4.0	1%	6	3	-1	-0.2
Cc1cc(C)c(NS(=O)(=O)c2ccccc2)c(C)c1	-2.6	.	1%	1	.	.	.
COC(=O)CN1C(=O)COc2ccc(Cl)cc21	1.0	-1.5	-2%	8	8	-12	6.9
CCOc1cc(/C=N/NC(=O)CN2CCCCC2)ccc1OCc1ccc(Cl)cc1	-1.2	0.9	.	10	-6	-4	-2.2
COC(=O)c1ccc(C(=O)OC)c(NC(=O)CSc2ccccn2)c1	-0.1	4.5	5%	-9	-3	-6	-5.0
Cc1ccc(C(=O)c2c(NC(=O)c3ccncc3)sc3c2CCCC3)cc1	1.4	-2.2	3%	-1	?	7	-0.8
CSc1cccc(CNC(=O)C2CCC(=O)N(CCCN3CCCC3=O)C2)c1 (configuration not stated)	2.9	-3.3	-7%	1	8	.	-3.4
O=[N+]([O-])c1ccc(CSc2nnc(Cc3ccccc3)n2-c2ccc(F)cc2)cc1	-2.5	2.2	-1%	-5	10	-116	0.9
CCN(CC)c1ccc(C2C(C(=O)Nc3ccccn3)=C(C)NC3=C2C(=O)CC(C)(C)C3)cc1 (configuration not stated)	2.1	1.9	-2%	-14	8	34	2.1
CCOC(=O)CSc1nc(-c2ccccc2)ns1	-4.4	0.3	-1%	8	-6	2	1.1
O=[N+]([O-])c1cccc(-c2ccn[nH]2)c1	-2.9	3.6	-6%	1	-13	-7	1.1
CC(=O)Nc1sc(N/N=C/c2ccccc2)nc1-c1ccc(C)cc1	-3.2	3.3	21%	2	-2	14	5.3
Cc1nc(SC2CCOC2=O)c2c(C)c(C)sc2n1 (configuration not stated)	1.8	0.8	-3%	1	4	-1	3.0
COc1cccc(CN(C)C(=O)CSCC(=O)Nc2ccc(C)cc2)c1OC	1.6	0.3	3%	-1	-3	-1	7.0
COC(CNC(=O)C(C)n1nc(C)c2ccccc21)OC (configuration not stated)	2.4	.	3%	-6	-4	0	-6.9
CCOC(=O)Cn1nc(C)n(-c2ccc(Cl)cc2)c1=O	-0.8	2.7	.	4	-7	-10	-1.8
Cc1cc(C(=O)N/N=C/c2cccc([N+](=O)[O-])c2)c(C)n1-c1ccccc1	-1.8	-0.2	.	1	2	46	-3.0
COc1ccc(C2CC(c3cccc(Br)c3)=NN2c2ccc(S(N)(=O)=O)cc2)cc1 (configuration not stated)	14	.	-8%	-15	.	.	.
CCOC(=O)Cc1ccc(NC(=O)c2ccc([N+](=O)[O-])cc2)cc1	-1.0	-0.8	.	2	1	-1	4.1
CCC(CC)CN1C(N(C)C)=NC[C@@H]1CC(C)C	-1.5	.	.	6	.	.	-2.9
Cc1nn(CC(=O)Nc2nccs2)c(C)c1[N+](=O)[O-]	0.7	0.3	1%	-7	-1	-3	-0.2
C(=N\n1cnnc1)/c1ccc(OC2CSC2)cc1	-0.8	5.2	1%	-18	12	-11	-2.8
COC(=O)N/N=C/c1c[nH]c2ccccc12	1.2	5.3	.	-3	-1	42	-1.6
Cc1ccc(N2C(=O)C3C4C=CC(CC4)C3C2=O)cc1Cl (configuration not stated)	1.1	-0.5	.	7	16	.	4.2
c1ccc2c(CNCCN3CCOCC3)cccc2c1	-1.9	-3.6	8%	2	6	-9	4.6
CCC(=O)c1c[nH]c(C(=O)N2CCOCC2)c1	3.7	-3.0	.	-4	4	-3	-4.5
Cc1cc(C)cc(C(=O)NCC(=O)OC(C)C(=O)N(C)c2ccccc2)c1 (configuration not stated)	1.5	-1.8	2%	-3	-3	5	0.2
CC1(C)OC(=O)C(=CNNc2c(Cl)cc(Cl)cc2Cl)C(=O)O1	2.3	0.5	-3%	0	-15	-5	0.7
CC(=O)Nc1sc2c(c1C(c1ccccn1)N1CCN(C)CC1)CCCC2 (configuration not stated)	1.2	9.7	-2%	-1	-9	-1	-2.8
COc1nccnc1NS(=O)(=O)c1ccc(NC(=S)NC(=O)c2ccccc2)cc1	-2.0	0.7	.	2	-5	87*	-0.2
Cc1ccc(-c2cc(-c3ccc(F)cc3)c(C#N)c(N)n2)o1	-2.4	1.6	18%	1	-6	-12	1.0
CCC1CC(=O)CCN1S(=O)(=O)c1ccc(C)cc1 (configuration not stated)	3.0	.	1%	1	.	.	.
CCN(CC(=O)Nc1ccc(NC(C)=O)cc1)C(=O)CN1C(=O)C2CCCCC2C1=O (configuration not stated)	-3.0	.	5%	-7	.	-4	3.4
COC(=O)c1ccccc1NC(=O)Cc1ccccc1OC	3.6	2.2	18%	-3	20	2	3.8
O=C(NCCc1ccccc1)c1ccc(CS(=O)(=O)c2ccc(Cl)cc2)o1	1.4	0.1	-5%	-6	4	-3	-7.2
Cc1cc2c(C)nc(N/N=C/c3ccc([N+](=O)[O-])cc3)nc2o1	12	6.1	.	4	-1	-13	5.0
CCS(=O)(=O)N1CCN(C(=O)c2cccnc2)CC1	-0.6	2.9	-2%	0	1	.	2.2
CC(=O)C1C(c2ccccc2OC(F)F)NC(=O)NC1(O)C(F)(F)F (configuration not stated)	-1.3	4.2	4%	-12	29	?	-0.6
CC1CCN(S(=O)(=O)c2nnc(NC(=O)c3cccc(Cl)c3)s2)CC1	4.2	-0.1	.	-15	-1	0	-0.9
O=C(NC(=S)Nc1ccc(N2CCOCC2)c(Cl)c1)c1cncc(Br)c1	-1.1	-4.3	7%	-3	9	12	-1.0
FCCCOc1ccc(/C=N/OCc2ccc(Cl)cc2)cc1	-3.1	-0.4	?	0	-33	-2	-3.4
Cc1cc(Cl)ccc1OC(C)C(=O)OCC(=O)Nc1ccc2[nH]c(=O)[nH]c2c1 (configuration not stated)	-0.1	.	-1%	-4	.	-3	-2.2
COC(=O)CC1SCCNC1=O (configuration not stated)	-2.3	3.2	6%	11	3	-3	5.1
CN(C)C(CNC(=O)c1cccc(S(=O)(=O)NCc2ccccc2)c1)c1ccco1 (configuration not stated)	-0.4	-0.2	0%	-7	2	1	1.9
